RecA splice inh = Mtb RecA intein splicing inhibition; actives 0.75% (n = 290,000); cell-free RecA intein splicing, fluorescence; inhibition, %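 (about 9 µM by stock and volumes)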; in the data active = inhibition above about 30%; inconclusive = no clear call, values can overlap the other calls;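 note: 0% = vehicle wells and 100% = reference inhibitor control wells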
Target sequence (P9WHJ3 whole entry, looked up, canonical isoform): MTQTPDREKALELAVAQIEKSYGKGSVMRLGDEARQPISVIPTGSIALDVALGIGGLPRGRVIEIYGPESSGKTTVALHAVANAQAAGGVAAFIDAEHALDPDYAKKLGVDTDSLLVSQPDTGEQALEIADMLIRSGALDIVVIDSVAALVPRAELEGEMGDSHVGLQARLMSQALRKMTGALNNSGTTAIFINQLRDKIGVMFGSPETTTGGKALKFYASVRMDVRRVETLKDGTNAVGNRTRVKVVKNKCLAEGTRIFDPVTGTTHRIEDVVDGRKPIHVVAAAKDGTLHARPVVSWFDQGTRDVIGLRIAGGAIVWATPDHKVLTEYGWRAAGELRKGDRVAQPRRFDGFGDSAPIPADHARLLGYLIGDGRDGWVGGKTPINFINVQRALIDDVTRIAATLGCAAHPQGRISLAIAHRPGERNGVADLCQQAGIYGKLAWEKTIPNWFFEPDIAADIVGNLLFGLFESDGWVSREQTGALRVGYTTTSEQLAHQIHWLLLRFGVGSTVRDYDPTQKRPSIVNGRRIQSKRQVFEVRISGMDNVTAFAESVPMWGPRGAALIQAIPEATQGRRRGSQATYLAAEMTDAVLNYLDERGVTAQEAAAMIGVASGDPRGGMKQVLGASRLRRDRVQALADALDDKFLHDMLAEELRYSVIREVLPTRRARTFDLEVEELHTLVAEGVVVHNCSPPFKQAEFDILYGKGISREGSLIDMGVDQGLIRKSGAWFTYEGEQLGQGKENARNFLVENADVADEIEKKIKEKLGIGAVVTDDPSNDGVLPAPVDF
Mtb betalactam = beta-lactam sensitization of Mtb H37Rv; M. tuberculosis H37Rv growth with meropenem, percent inhibition; hits of this screen are not shown here; inhibition, % at 25 µM; actives 0.27% (n = 330,000); AID 434955;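 active = about 74% or more and at least 40 points above the plate without the antibiotic, then above 30% in a dose series; inconclusive = first-round hits that could not be retested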;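 note: growth measured after seven days incubation then overnight dye step; 0% = bacteria only wells and 100% = bacteria with antibiotic; twin plates without the antibiotic show which effects depend on it; some results filed as inactive read as strong as hits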
YopH inh = blocks Yersinia enterocolitica YopH tyrosine phosphatase | fluorescence Ex485/Em525 | inhibition, %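 (about 10 µM by stock and volumes)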 | actives 0.16% (n = 140,000) | AID 898;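 active = inhibition of 50% or more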;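 note: controls were vehicle for no effect and minimum signal wells for full effect; inactives centre near -20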
Arbovirus inh = arbovirus infection inhibition; arbovirus infection cell-based antiviral screen; actives 0.37% (n = 200,000); inhibition, % at 10 µM;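 active = inhibition from about 30%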;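 note: bluetongue infection of BSR cells; cell survival read as ATP light after 72 h; 0% = infected wells without compound and 100% = uninfected wells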
Mtb H37Rv = M. tuberculosis H37Rv growth inhibitors, H37Rv strain (AID 1626) | actives 0.95% (n = 220,000) | M. tuberculosis H37Rv growth inhibition; higher % means a stronger effect | inhibition, % at 10 µM; hits with a dose series show IC50 in µM;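 active = confirmed in a dose series; inconclusive = inhibition above 80% but not taken into the dose series; inactive = below 80% or under 30% at every dose of the series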;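 note: bacteria incubated seven days before Alamar blue readout; 0% = bacteria only wells and 100% = bacteria with antibiotic wells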
Arbovirus inh repeat = recorded beside Arbovirus inh, whose call it bears; inhibition, %; measured here: 10K subset replicate screen; many hits read low in the repeat;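 first of two repeat runs on a subset; 0% = infected and 100% = uninfected wells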
An asterisk follows results filed as active; ? = inconclusive; . = no result given; & = joins results of further samples. The list is partial (hit frequency here may not be typical).

SMILES	RecA splice inh	Mtb betalactam	YopH inh	Arbovirus inh	Mtb H37Rv	others
Cc1ccc(OCc2nc(-c3cccs3)no2)c([N+](=O)[O-])c1	3.7	-2	.	-5	1%
Cc1ccc(-n2c(C)cc(/C=N/NC(N)=S)c2C)cc1	2.8	95	-32	-12	77%
COc1cccc(CN2CCN(Cc3cccc(Oc4ccccc4)c3)CC2)c1OC	7.9	-1	.	.	.
CC(C)(C)c1cc(N)n2nc(C(C)(C)C)cc2n1	-4.7	4	.	-3	8%
CN(C(=O)CSc1nnc(Nc2ccccc2)s1)c1c(N)n(Cc2ccccc2)c(=O)[nH]c1=O	2.2	-12	-22	0	-6%
COC(=O)c1ccccc1NC(=O)C1CC(=O)N(c2ccc(C)c(C)c2)C1 (configuration not stated)	.	11	-13	-4	2%
Cn1c(SCC(=O)C(C)(C)C)nnc1-c1ccncc1	-4.8	3	-18	1	-7%
CCOC(=O)C1CCCN(C(=O)Cn2nc(CC)n3c(cc4sccc43)c2=O)C1 (configuration not stated)	-0.4	7	-39	-6	-7%	Arbovirus inh repeat=-6
O=C(CSc1nnc(COc2ccccc2)n1Cc1ccco1)Nc1ccc2c(c1)OCCO2	0.3	5	-14	-4	2%
Cc1cc[n+](CC2OCc3ccccc3CO2)cc1	-2.1	-5	.	0	-6%
N#Cc1c(NC(=O)CN2CCCCC2)sc2c1CCC2	-2.0	-8	-19	-7	-7%
Cc1ccc(S(=O)(=O)CC(=O)Nc2ccc(S(=O)(=O)Nc3ccccn3)cc2)cc1	-1.9	2	.	11	0%
CCC1CCCCN1C(=O)c1ccc([N+](=O)[O-])o1 (configuration not stated)	-7.0	94	.	.	.
CCCCOC(=O)c1ccc(N2C(=O)CC(N3CCN(C/C=C/c4ccccc4)CC3)C2=O)cc1 (configuration not stated)	-0.7	-4	-9	-8	14%
CN(Cc1cnc2nc(N)nc(N)c2n1)c1ccc(C(=O)N[C@@H](CCC(=O)O)C(=O)O)cc1	-14	0&-7	.	.	-10%
Cc1ccccc1OCCn1cc(/C(N)=N/O)c2ccccc21	8.2	6	7	-23	8%
Cc1ccc(-n2c(-c3ccncc3)n[nH]c2=S)c(C)c1	-1.8	1	.	-2	-5%
O=c1[nH]cnc2scc(-c3ccccc3)c12	-4.6	-9	-6	5	4%
Cc1cc(C)cc(N(C(C)C(=O)NCc2ccc3c(c2)OCO3)S(C)(=O)=O)c1 (configuration not stated)	1.1	1	.	-1	4%
Cc1ccc(SCCC(=O)NCc2ccncc2)cc1	-2.9	3	.	4	0%
COc1nc(NCc2cccnc2)nc(OC)n1	-3.1	8	-21	1	-7%
N#Cc1c(N)sc(=S)c2c1CCN(Cc1ccccc1)C2	.	-5	.	-16	2%
CCCn1c(SCC(=O)N2CCCCC2)nnc1C(C)C	0.6	-12	.	6	-8%
Cc1cccc(C)c1NC(=O)C1(NC(=O)Cn2cccc([N+](=O)[O-])c2=O)CCCCC1	-17	2	-12	5	10%
CCOc1ccc(S(=O)(=O)N/N=C(\C)c2ccc(OC)cc2OC)cc1	0.6	-12	.	-8	4%
COc1cc(OC)c(S(=O)(=O)NCc2ccco2)cc1S(=O)(=O)NCc1ccco1	-1.6	-13	-23	11	1%
COc1ccc(-c2cc(-c3cccs3)c(C#N)c(SCC(=O)NCc3ccccc3)n2)cc1	0.3	-3	-30	-14	-9%
O=C1c2ccccc2NC(c2ccccc2)N1/N=C/c1ccccc1 (configuration not stated)	3.5	-5	-28	5	6%
CC(C)C(=O)N1CCN(c2ccccc2NC(=O)c2cccc(Cl)c2)CC1	0.6	-2	-86	2	9%
O=C(NCc1cccnc1)c1ccccc1NC(=O)c1c(F)cccc1F	2.4	-2	.	.	.
CN(C(=O)c1ccccc1OCc1ccc(Cl)cc1)c1ccccc1	17	3	.	.	.
COC(=O)CSc1[nH]c2ccc(F)cc2c1[N+](=O)[O-]	-143	100	.	.	69%
COc1ccc(OC)c(N(CC(=O)NC2CC3CCC2C3)S(=O)(=O)c2ccccc2)c1 (configuration not stated)	4.8	-4	.	.	.
O=S(=O)(c1cccs1)N1CCc2ccccc2C1	-0.8	3	-22	1	-1%
CCn1c(SCc2ccc(C(=O)OC)o2)nc2sc3c(c2c1=O)CCCC3	1.7	2	-15	-2	-14%
COc1ccc(Cc2nnc(NC(=O)Nc3ccccc3OC)s2)cc1	0.7	-2	.	.	.
CNc1c(NS(=O)(=O)c2ccc(OC)cc2)c(=O)oc2ccccc12	-2.4	1	.	.	.
Cc1cccc(N(C(=O)CCC(=O)Nc2nccs2)C(C(=O)NC(C)(C)C)c2ccc(O)cc2)c1 (configuration not stated)	-2.1	-5	.	9	-6%
OC(COCc1ccccc1)CN1CCc2ccccc2C1 (configuration not stated)	0.1	5	-14	11	5%
CC1Cn2c(nc3sc4c(c3c2=O)CCC4)N1CCO (configuration not stated)	2.6	-4	-27	0	-3%
O=C(CN1C(=O)CSc2ccc(C(F)(F)F)cc21)Nc1ccccc1	-1.2	-13	.	.	-1%
COc1ccccc1OCC(=O)NCCCN1CCOCC1	0.8	2	.	.	.
O=S(=O)(c1ccc(F)cc1)n1ccc(-c2cccc(OCc3ccc(Cl)cc3Cl)c2)n1	0.3	6	-19	5	-15%
O=C(N/C(=C\c1cccnc1)C(=O)N1CCOCC1)c1ccco1	-4.2	-6	.	6	-1%
O=C(O)/C(=C\C(=O)c1ccccc1)Nc1ccccc1	-0.3	2	.	.	-5%
C=CCC1(CC=C)CCCN1C(=O)c1cc(COc2cccc(C(F)(F)F)c2)on1	8.5	-2	.	.	.
CCN=C1S/C(=C\c2cc(Br)ccc2OCC(=O)OCC)C(=O)N1CC	3.1	3	-30	14	6%
C/C=C(\C)C(=O)N1CC2(CC(c3cccc(NC(=O)CC(c4ccccc4)c4ccccc4)c3)=NO2)C[C@H]1C(N)=O (some centres not stated)	4.4	.	.	.	4%
N#Cc1ccccc1Cn1cc(C(=O)c2ccccc2F)c2ccccc21	-0.7	-1	-13	-3	13%
Cc1cccc(NC(=O)CN2C(=O)S/C(=C\C(=O)Nc3ccc(Cl)cc3)C2=O)c1	-0.9	11	-12	-5	0%
COc1ccc(C(CC(=O)O)NC(=O)Cc2ccccc2)cc1 (configuration not stated)	-0.2	0	-46	1	7%
Cc1cc(C)c(-c2cc(NC(=O)COC(=O)c3ccc(C#N)cc3)n(-c3ccccc3)n2)cc1C	6.1	9	-15	-3	16%
CC(C)(C)C(=O)Cn1ncc(N2CCOCC2)c(Cl)c1=O	0.2	4	.	.	.
C=C(C)Cn1c(NCCC)nc2c1c(=O)n(C)c(=O)n2C	0.1	-9	.	0	.
O=C(CCn1ccnc1)Nc1ccc2ccccc2c1	1.3	33	.	3	68%
O=C(NCCCCO)c1ccc2c3c(cccc13)CC2	1.9	1	.	10	10%
CC(=O)Nc1sc(N/N=C\c2ccco2)nc1-c1cccs1	2.1	1	-9	-19	2%
O=[N+]([O-])c1ccc(/C=N/NS(=O)(=O)c2ccc(Cl)cc2)o1	.	100	-8	-10	28%
Cc1ccc(NC(=O)CCC(=O)OCC(=O)c2ccc(Oc3ccc([N+](=O)[O-])cc3)cc2)cc1	-1.5	-1	-17	-1	-7%
CN(C)CCn1c2c(c(SCC(=O)Nc3nccs3)nc1=O)CCCC2	1.6	-5	.	.	.

Among those listed so far, these have an NH in an aromatic ring:
SMILES	RecA splice inh	Mtb betalactam	YopH inh	Arbovirus inh	Mtb H37Rv	others
CN(C(=O)CSc1nnc(Nc2ccccc2)s1)c1c(N)n(Cc2ccccc2)c(=O)[nH]c1=O	2.2	-12	-22	0	-6%
Cc1ccc(-n2c(-c3ccncc3)n[nH]c2=S)c(C)c1	-1.8	1	.	-2	-5%
O=c1[nH]cnc2scc(-c3ccccc3)c12	-4.6	-9	-6	5	4%
COC(=O)CSc1[nH]c2ccc(F)cc2c1[N+](=O)[O-]	-143	100	.	.	69%

Further entries follow.
SMILES	RecA splice inh	Mtb betalactam	YopH inh	Arbovirus inh	Mtb H37Rv	others
Cc1ccc(COc2ccc(/C=N/O)cc2)cc1	4.2	12	-14	-7	10%
O=C(Cc1ccc([N+](=O)[O-])cc1)Nc1cccc(C(F)(F)F)c1	1.8	99	-21	21	?
CC(=O)Nc1ccc(S(=O)(=O)N2CCC(C(=O)NCc3cccnc3)CC2)cc1	-1.4	-9	.	.	.
CC1CCN(S(=O)(=O)c2cn(CC(=O)Nc3ccc(C#N)cc3)cn2)CC1	1.9	-8	.	.	.
CCOC(=O)C1CCN(S(=O)(=O)c2ccc3c(c2)CC(=O)N3)CC1	-0.8	5	.	.	.
COc1ccccc1NC(=O)CSC1CC(=O)N(c2ccc3c(c2)OCO3)C1=O (configuration not stated)	4.8	?	11	5	-2%
FC(F)(F)c1ccnc(Oc2ccc(C3=NCCS3)cc2)c1	0.2	4	.	.	-2%
CCC(CC)C(=O)NCCc1ccc(F)cc1	-1.2	-1	-7	7	-11%
Cc1ccc(S(=O)(=O)c2ccc(Cl)cc2)cc1S(=O)(=O)N1CCN(C)CC1	-24	-8	-21	-3	2%
CCC(C)(C)n1nnnc1C(C(C)C)N1CCN(C)CC1 (configuration not stated)	0.6	5	1	1	11%
Cc1n[nH]c(=O)nc1N/N=C/c1cccs1	-4.4	96	.	-7	?
C=CCSc1nc2c(c(=O)[nH]1)C(C(C)C)C(C#N)=C(N)O2 (configuration not stated)	-0.1	-2	12	11	-7%	Arbovirus inh repeat=7
CSc1nnnn1-c1ccc(C)c(Cl)c1	-1.1	-5	-33	2	-8%
Cc1c(Cl)cccc1NC(=O)Cn1nnc(C(=O)NCc2cccs2)c1N	-0.5	1	.	-6	4%
CCCc1nc(NCc2ccco2)c(C#N)c2c1COC(C)(C)C2	-2.4	-1	-33	-2	0%
Clc1ccc(-c2nnc(-c3ccccc3)o2)cn1	0.5	5	.	.	.
O=C(c1cc(-c2cccnc2)nc2ccc(Cl)cc12)N1CCC2(CC1)OCCO2	1.3	4	-8	5	10%
COc1ccc(C2NC(=O)NC(C)=C2C(=O)OCC2CCCCC2)cc1OC (configuration not stated)	3.3	0	.	.	.
O=C(CSc1nc(-c2ccccc2)cc(=O)[nH]1)NCc1ccc2c(c1)OCO2	2.7	-1	-34	2	3%
COc1ccc(OC)c(S(=O)(=O)N2CCC(C(=O)N3CCN(c4ccc(F)cc4)CC3)CC2)c1	-0.9	3	.	.	.
Cc1ccc(OCc2nnc(SCC(=O)NC3CCCCC3)n2C)cc1	-0.5	-8	.	6	-1%
COc1ccc(N2CC(C(=O)NCCc3ccc(OC)c(OC)c3)CC2=O)cc1 (configuration not stated)	-8.2	-5	-30	1	2%
COc1ccc(-c2ccc(-c3noc(C(C)C)n3)c(OC)n2)cc1	7.8	99	-35	-6	41%
Cc1ccc(S(=O)(=O)/N=C(/Nc2nc(C)cc(C)n2)N2CCOCC2)cc1	-4.9	?	8	5	-4%	Arbovirus inh repeat=1
COc1cccc(N(CC(=O)NCC2CCCO2)C(=O)CCC(=O)Nc2nccs2)c1 (configuration not stated)	0.0	3	.	2	2%
O=C(NCCCCNC(=O)c1cccnc1)c1cccnc1	2.6	?	-20	3	-8%
O=C(CCCc1nc2ccccc2s1)N1CCN(c2ccccc2F)CC1	0.4	4	-44	5	10%
CCCNS(=O)(=O)c1ccc(OCC(=O)NCc2ccco2)cc1	0.4	1	-8	-2	-4%
COC(=O)c1c(NC(=O)Cc2ccccc2)sc2c1CC(C)(C)NC2(C)C	-4.6	-3	.	.	.
CCCCN1CCC(O)(c2ccccc2)C(C(=O)c2ccccc2)C1 (configuration not stated)	2.0	100	-15	8	6%
COc1ccc2c(c1)c(C(C)=O)c(C)n2CCc1ccccc1	7.6	2	.	.	.
CC(=O)Nc1c2c(nn1-c1ccc(C)cc1)CSC2	0.2	-3	.	.	.
O=C(C1=C(O)C(=O)N(CCc2ccccc2)C1c1cccnc1)c1ccco1 (configuration not stated)	5.4	15	-45	7	-1%	Arbovirus inh repeat=4
CCCCN(CC)CCCNC(=O)C1CCN(c2ncnc3c2sc2cccc(F)c23)CC1	-1.0	1	.	-14	-3%
CCOC(=O)N1CCN(C2=C(NS(=O)(=O)c3ccccc3)C(=O)c3ccccc3C2=O)CC1	-1.7	9	.	.	.

Filtered by structure: the entries above with a CF3 group
SMILES	RecA splice inh	Mtb betalactam	YopH inh	Arbovirus inh	Mtb H37Rv	others
O=C(CN1C(=O)CSc2ccc(C(F)(F)F)cc21)Nc1ccccc1	-1.2	-13	.	.	-1%
C=CCC1(CC=C)CCCN1C(=O)c1cc(COc2cccc(C(F)(F)F)c2)on1	8.5	-2	.	.	.
O=C(Cc1ccc([N+](=O)[O-])cc1)Nc1cccc(C(F)(F)F)c1	1.8	99	-21	21	?
FC(F)(F)c1ccnc(Oc2ccc(C3=NCCS3)cc2)c1	0.2	4	.	.	-2%
